# Vaccinia stage = Vaccinia orthopox stage-specific inhibition. Vaccinia-infected cells, mCherry/Venus stage reporter fluorescence; stronger effect = lower value; some inactives read as strong as hits. activity change (mCherry), % (concentration not given with the values). 89,000 tested, 0.01% active;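 active = mCherry past -33% and 40 or more points under the early reporter, replicates agreeing; inconclusive = past -33% without that gap or agreement; tested in A549 cells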;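 also: scaled between vehicle wells and reference inhibitor wells; 23 nL library stock went into each well; one replicate is shown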
# Vaccinia stage Venus = recorded beside Vaccinia stage, whose call it bears; activity change (Venus), %; measured here: Venus reporter, other viral stage;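 negative = less Venus signal; first of two replicates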
# * hit, by the source's call; ? = inconclusive; . = not tested or not shown; & = joins results of further samples. Only part of the results is shown; rates above refer to the full screens.
SMILES,Vaccinia stage,Vaccinia stage Venus
C[C@@H]1CN([C@H](C)CO)S(=O)(=O)c2ccc(C#Cc3ccccc3)cc2O[C@H]1CN(C)C(=O)Nc1ccc2c(c1)OCO2,0.1&1.9,-4.6&2.9
CNC[C@H]1Oc2ccc(NC(=O)Nc3ccccc3)cc2CC(=O)N([C@H](C)CO)C[C@H]1C,2.1,6.0
C[C@@H]1CN([C@H](C)CO)C(=O)c2cccc(NS(=O)(=O)c3cn(C)cn3)c2O[C@@H]1CN(C)Cc1ccncc1,6.0,2.9
COCC(=O)Nc1ccc2c(c1)OC[C@@H](C)N(C(=O)c1ccccc1F)C[C@@H](C)[C@@H](OC)CN(C)C2=O,-1.9,-0.6
CCC(=O)Nc1ccc2c(c1)OC[C@H](C)N(CCC(F)(F)F)C[C@H](C)[C@@H](OC)CN(C)C2=O,20.0,2.9
C/C=C/c1cnc2c(c1)C(=O)N([C@H](C)CO)C[C@H](C)[C@H](CN(C)C(=O)c1cnccn1)O2,4.1,-1.3
COc1ccccc1S(=O)(=O)N(C)C[C@H]1Oc2cc(C#CCC3CCCC3)ccc2S(=O)(=O)N([C@H](C)CO)C[C@@H]1C,-26.6,-21.2
CC(C)NC(=O)Nc1ccc2c(c1)C(=O)N([C@@H](C)CO)C[C@@H](C)[C@@H](CN(C)S(=O)(=O)c1ccc(F)cc1)O2,5.2,10.1
CO[C@@H]1CN(C)C(=O)c2cc(NC(=O)Nc3ccccc3Cl)ccc2OC[C@H](C)NC[C@H]1C,14.3,19.8
COc1ccc2c3c(n(C)c2c1)[C@H](CO)N(Cc1ccccn1)CC31CCN(C(=O)NC(C)C)CC1,9.2,2.7
C[C@@H]1CCCCO[C@@H](CN(C)C(=O)NC2CCCCC2)[C@H](C)CN([C@H](C)CO)C(=O)c2cc(NC(=O)CCC(F)(F)F)ccc2O1,-16.8,-17.7
CCCNC(=O)N(C)C[C@@H]1Oc2cc(C#C[C@@H](C)O)ccc2S(=O)(=O)N([C@H](C)CO)C[C@@H]1C,17.3,5.1
O=C(C[C@H]1C=C[C@@H](NC(=O)Nc2ccc(F)cc2)[C@@H](CO)O1)NCc1ccccn1,8.7,6.1
COc1ccccc1CN1[C@H](CO)[C@H](c2ccccc2)C12CN(C(=O)c1ccccn1)C2,0.2,0.4
COCC(=O)NC[C@H]1[C@H](c2ccc(-c3ccccc3)cc2)[C@@H](CO)N1C(C)=O,14.3,1.7
C[C@@H]1CCCCO[C@@H](CN(C)C(=O)c2ccccc2)[C@@H](C)CN([C@@H](C)CO)C(=O)c2cc(NS(=O)(=O)c3cn(C)cn3)ccc2O1,13.4,4.7
O=C(C[C@@H]1CC[C@H](NC(=O)C2CC2)[C@H](CO)O1)NCc1ccncc1,11.4,5.8
CN1C(=O)c2cc(NC(=O)c3cscn3)ccc2OC[C@H]2O[C@@H](CC(=O)N3CCOCC3)CC[C@H]21,12.1,14.5
Cc1noc(C)c1NC(=O)N[C@H]1C=C[C@H](CC(=O)NCc2ccc(Cl)c(Cl)c2)O[C@H]1CO,-1.9,-0.5
COc1cccc(NC(=O)Nc2ccc3c(c2)C(=O)N(C)[C@@H]2CC[C@H](CC(=O)NCCc4ccccc4)O[C@H]2CO3)c1,-3.7,0.2
CCC(=O)N1C[C@@H](C)[C@H](OC)CN(C)C(=O)c2cc(NC(=O)COC)ccc2OC[C@H]1C,20.5,7.4
CN(C)CC(=O)Nc1ccc2c(c1)[C@H]1C[C@H](CC(=O)NCC3CC3)O[C@@H](CO)[C@H]1O2,2.1,5.8
C[C@@H]1CN([C@@H](C)CO)C(=O)Cc2cc(NC(=O)c3ccncc3)ccc2O[C@@H]1CN(C)CC1CCCCC1,-4.4,3.5
O=S(=O)(NCC[C@@H]1CC[C@@H](NS(=O)(=O)c2ccccc2Cl)[C@@H](CO)O1)c1ccc(Cl)cc1,-13.7,-12.7
COCCNC(=O)C[C@H]1CC[C@@H]2[C@@H](COc3ccc(NC(=O)COC)cc3C(=O)N2C)O1,-0.9,2.3
COc1ccc(NC(=O)N(C)C[C@@H]2OCCCC[C@H](C)Oc3ccc(NC(=O)Nc4ccc5c(c4)OCO5)cc3C(=O)N([C@@H](C)CO)C[C@@H]2C)cc1,20.9,17.3
CCNC(=O)C[C@@H]1CC[C@H]2[C@@H](COc3ccc(NC(=O)Nc4ccc(F)cc4)cc3C(=O)N2C)O1,8.8,6.8
C[C@@H]1CN([C@@H](C)CO)C(=O)c2cc(NC(=O)CCN3CCOCC3)ccc2O[C@H]1CN(C)C(=O)NC1CCCCC1,26.3,11.6
CN(C)C(=O)[C@H]1[C@H](CO)[C@H]2Cn3c(ccc(-c4ccncc4)c3=O)[C@H]2N1Cc1ccccc1,21.7,18.1
C[C@@H]1CN([C@@H](C)CO)C(=O)c2cc(C#CCN(C)C)cnc2O[C@@H]1CN(C)C(=O)NC1CCCC1,7.1,2.2

# Not a retest: entries from further up.
SMILES,Vaccinia stage,Vaccinia stage Venus
COc1cccc(NC(=O)Nc2ccc3c(c2)C(=O)N(C)[C@@H]2CC[C@H](CC(=O)NCCc4ccccc4)O[C@H]2CO3)c1,-3.7,0.2
CCC(=O)N1C[C@@H](C)[C@H](OC)CN(C)C(=O)c2cc(NC(=O)COC)ccc2OC[C@H]1C,20.5,7.4
CN(C)CC(=O)Nc1ccc2c(c1)[C@H]1C[C@H](CC(=O)NCC3CC3)O[C@@H](CO)[C@H]1O2,2.1,5.8
C[C@@H]1CN([C@@H](C)CO)C(=O)Cc2cc(NC(=O)c3ccncc3)ccc2O[C@@H]1CN(C)CC1CCCCC1,-4.4,3.5
O=S(=O)(NCC[C@@H]1CC[C@@H](NS(=O)(=O)c2ccccc2Cl)[C@@H](CO)O1)c1ccc(Cl)cc1,-13.7,-12.7
COCCNC(=O)C[C@H]1CC[C@@H]2[C@@H](COc3ccc(NC(=O)COC)cc3C(=O)N2C)O1,-0.9,2.3
COc1ccc(NC(=O)N(C)C[C@@H]2OCCCC[C@H](C)Oc3ccc(NC(=O)Nc4ccc5c(c4)OCO5)cc3C(=O)N([C@@H](C)CO)C[C@@H]2C)cc1,20.9,17.3
CCNC(=O)C[C@@H]1CC[C@H]2[C@@H](COc3ccc(NC(=O)Nc4ccc(F)cc4)cc3C(=O)N2C)O1,8.8,6.8
C[C@@H]1CN([C@@H](C)CO)C(=O)c2cc(NC(=O)CCN3CCOCC3)ccc2O[C@H]1CN(C)C(=O)NC1CCCCC1,26.3,11.6
CN(C)C(=O)[C@H]1[C@H](CO)[C@H]2Cn3c(ccc(-c4ccncc4)c3=O)[C@H]2N1Cc1ccccc1,21.7,18.1

# Remaining list, next part:
SMILES,Vaccinia stage,Vaccinia stage Venus
N#C[C@H]1[C@H](c2ccc(-c3cccc(F)c3)cc2)[C@@H](CO)N1S(=O)(=O)c1cccc(F)c1,-10.2,-6.3
C[C@@H]1CN([C@@H](C)CO)C(=O)c2cc(N(C)C)ccc2O[C@H]1CN(C)C(=O)Nc1ccc(F)cc1,11.8,1.8
Cc1ccccc1-c1ccc([C@H]2[C@@H](CO)N3CCCCN(CC4CC4)C[C@@H]23)cc1,-25.1,-19.0
C[C@@H]1CN([C@@H](C)CO)S(=O)(=O)c2ccc(C#Cc3ccccc3)cc2O[C@@H]1CN(C)S(=O)(=O)c1cn(C)cn1,?,.
CC(C)CC#Cc1cnc2c(c1)C(=O)N([C@H](C)CO)C[C@@H](C)[C@H](CN(C)C(=O)Nc1ccccc1F)O2,-8.7,-9.9
C[C@@H]1CCCCO[C@H](CN(C)CC2CCCCC2)[C@H](C)CN([C@@H](C)CO)C(=O)c2cc(NS(=O)(=O)c3ccc(F)cc3)ccc2O1,?,.
CO[C@H]1CN(C)C(=O)c2ccc(NC(=O)c3cnccn3)cc2OC[C@H](C)N(CCc2ccccc2)C[C@H]1C,-1.7,-1.2
O=C(Cc1ccccn1)N1CC2(C1)[C@H](c1ccccc1)[C@@H](CO)N2C(=O)c1ccncc1,5.7,9.5
CS(=O)(=O)Nc1ccc2c(c1)[C@@H]1C[C@@H](CC(=O)NCCN3CCCCC3)O[C@@H](CO)[C@@H]1O2,9.6,8.2
COc1ccc(S(=O)(=O)N(C)C[C@H]2Oc3ccc(NC(=O)Cn4cnnn4)cc3CC(=O)N([C@@H](C)CO)C[C@@H]2C)cc1,8.8,10.3
COc1cccc(-c2ccc([C@H]3[C@@H](CO)N4C(=O)CN(C(=O)c5ccncc5)C[C@H]34)cc2)c1,6.0,7.7
C[C@H]1CN([C@@H](C)CO)C(=O)Cc2cc(NC(=O)Nc3cccc4ccccc34)ccc2O[C@H]1CN(C)S(=O)(=O)c1cn(C)cn1,5.8,1.9
C[C@H](CO)N1C[C@H](C)[C@H](CN(C)C(=O)Nc2cccc(F)c2)Oc2cc(Br)ccc2S1(=O)=O,-18.4,-5.9
CCS(=O)(=O)Nc1ccc2c(c1)C(=O)N(C)C[C@@H](OC)[C@@H](C)CN(C(=O)COC)[C@H](C)CO2,26.5,21.1
Cc1noc(C)c1NC(=O)N(C)C[C@H]1Oc2c(NS(=O)(=O)c3ccc(F)cc3)cccc2C(=O)N([C@@H](C)CO)C[C@H]1C,11.0,1.8
CO[C@@H]1CN(C)C(=O)c2cc(NC(C)=O)ccc2OC[C@H](C)N(C(=O)C2CCCCC2)C[C@@H]1C,7.6,9.5
COc1ccccc1S(=O)(=O)N[C@@H]1CC[C@H](CCNC(=O)C2CCOCC2)O[C@H]1CO,3.3,8.8
CO[C@@H]1CN(C)C(=O)c2ccc(NC(=O)Nc3ccccc3F)cc2OC[C@@H](C)N(C(=O)Nc2ccccc2F)C[C@H]1C,-14.1,-10.1
C[C@H]1CN([C@@H](C)CO)C(=O)c2cc(NC(=O)CCN3CCOCC3)ccc2O[C@@H]1CN(C)Cc1ccc(C(=O)O)cc1,-4.0,-5.9
CO[C@H](CN(C)S(=O)(=O)c1ccc(C)cc1)[C@H](C)CN([C@@H](C)CO)S(=O)(=O)c1cccc(Cl)c1,-21.0,-16.0
CC(C)(C)[S@](=O)N1Cc2cc(C(=O)NCCc3ccncc3)nc(-c3cccc(-c4ccc(C#N)cc4)c3)c2[C@@H]1CCO,-19.1,12.6
COc1ccccc1C#Cc1ccc([C@H]2[C@@H](C#N)N(C(=O)C3CC3)[C@@H]2CO)cc1,-5.8,2.6
CCOC(=O)N(C)C[C@@H]1OCc2ccccc2-c2ccccc2C(=O)N([C@H](C)CO)C[C@H]1C,9.0,1.5
O=C(C[C@H]1C=C[C@H](NS(=O)(=O)c2ccc(F)cc2)[C@@H](CO)O1)N1CCC(Cc2ccccc2)CC1,?,.
COc1ccc(S(=O)(=O)N(C)C[C@@H]2Oc3ccc(NC(=O)Cc4cn(C)c5ccccc45)cc3CC(=O)N([C@@H](C)CO)C[C@H]2C)cc1,-15.5,-2.6
COCC(=O)N1C[C@@H](C)[C@H](OC)CN(C)C(=O)c2cc(NC(=O)NC(C)C)ccc2OC[C@H]1C,13.7,16.4
O=C(C[C@H]1C[C@H]2c3cc(NS(=O)(=O)c4ccc(F)cc4)ccc3O[C@H]2[C@@H](CO)O1)NCc1ccc(-c2ccccc2)cc1,-28.8,-32.1
COc1ccc(CN(C)C[C@H]2OCCCC[C@H](C)Oc3ccc(NC(=O)NC(C)C)cc3C(=O)N([C@H](C)CO)C[C@@H]2C)cc1,-6.6,-3.0
COc1ccc2c3c(n(C)c2c1)[C@H](CO)N(C)CC31CCN(C(=O)Nc2cccc(F)c2)CC1,-16.1,-9.0
C[C@@H]1CN([C@@H](C)CO)C(=O)c2cccc(NS(=O)(=O)c3ccccc3)c2O[C@@H]1CN(C)C(=O)Nc1ccc2c(c1)OCO2,2.6,-0.8
CC(C)CC#Cc1ccc2c(c1)O[C@H](CN(C)C(=O)c1ccccc1F)[C@@H](C)CN([C@@H](C)CO)S2(=O)=O,-16.8,-22.0
O=C(NCCCN1CCOCC1)[C@@H]1[C@@H](CO)[C@@H]2Cn3c(cccc3=O)[C@H]1N2C(=O)NC1CCCC1,-8.5,-6.3
C[C@@H]1CN([C@@H](C)CO)C(=O)c2cc(C#Cc3ccccc3F)cnc2O[C@@H]1CN(C)C(=O)C1CCOCC1,-1.5,0.3
N#Cc1ccc(-c2ccc([C@H]3[C@@H](CO)N4C(=O)CN(C(=O)C5CCCC5)C[C@@H]34)cc2)cc1,-2.3,0.5
C[C@@H]1CN([C@@H](C)CO)C(=O)c2cccc(NC(=O)c3ccc(-c4nccs4)cc3)c2O[C@H]1CN(C)CC1CCCCC1,?,.
C[C@@H]1CN([C@@H](C)CO)C(=O)c2cc(NS(=O)(=O)c3cccs3)ccc2O[C@H]1CN(C)CC1CCCCC1,2.0,9.6
O=C(Nc1ccc(F)cc1)N1C[C@@H]2[C@H](c3ccccc31)[C@H](CO)N2C(=O)c1ccc(F)cc1,13.4,1.2
Cc1noc(C)c1NC(=O)Nc1ccc2c(c1)C(=O)N([C@H](C)CO)C[C@H](C)[C@H](CN(C)CC1CC1)O2,5.7,6.7
C[C@H](CO)N1C[C@H](C)[C@H](CN(C)Cc2ccc(C(F)(F)F)cc2)OCc2ccccc2-c2c(n(C)c3ccccc23)C1=O,?,.
C[C@@H]1CN([C@H](C)CO)C(=O)c2cccc(NS(=O)(=O)c3ccc(Cl)cc3)c2O[C@@H]1CN(C)S(=O)(=O)c1cccs1,0.5,4.7
CC(C)NC(=O)N(C)C[C@H]1Oc2cc(C#C[C@@H](C)O)ccc2S(=O)(=O)N([C@@H](C)CO)C[C@H]1C,13.1,-0.4
C[C@@H]1CN([C@@H](C)CO)C(=O)c2c(c3ccccc3n2C)-c2ccccc2CO[C@H]1CN(C)S(=O)(=O)c1cccc(F)c1,?,.
COc1ccc(CNC(=O)C[C@@H]2CC[C@@H](NS(=O)(=O)c3cccc(OC)c3)[C@@H](CO)O2)cc1,-5.0,-1.4
O=C(C1CCCCC1)N1CC(=O)N2[C@H](CO)[C@H](c3ccc(-c4cccnc4)cc3)[C@@H]2C1,-2.7,-0.7
C[C@@H]1CN([C@H](C)CO)C(=O)c2cc(C#CC3CCCCC3)cnc2O[C@H]1CN(C)C(=O)c1ccncc1,-3.1,-11.6
N#C[C@@H]1[C@@H](c2ccccc2)[C@H](CO)N1C(=O)c1cccnc1,0.6,-3.8

# From PubChem
